Screens from PubChem.
GLA inh pH 4.5: qHTS Assay for Inhibitors of Human alpha-Galactosidase at pH 4.5; purified enzyme, 4-MU-alpha-Gal fluorescence, pH 4.5; AID 1467, 2008; 230,000 tested, under 10 active; Alpha-galactosidase A (Homo sapiens), P06280; activity change, negative = inhibition, % at 105 µM; inconclusive = small, poorly fitted or top-dose-only inhibition, or a rising curve; inactive = flat fitted curve, though single readings scatter; no compound was filed as active;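 note: 0% = full activity with enzyme and -100% = basal without enzyme; dose as in the result columns while the protocol names 77 µM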
Target sequence (P06280 whole entry, looked up): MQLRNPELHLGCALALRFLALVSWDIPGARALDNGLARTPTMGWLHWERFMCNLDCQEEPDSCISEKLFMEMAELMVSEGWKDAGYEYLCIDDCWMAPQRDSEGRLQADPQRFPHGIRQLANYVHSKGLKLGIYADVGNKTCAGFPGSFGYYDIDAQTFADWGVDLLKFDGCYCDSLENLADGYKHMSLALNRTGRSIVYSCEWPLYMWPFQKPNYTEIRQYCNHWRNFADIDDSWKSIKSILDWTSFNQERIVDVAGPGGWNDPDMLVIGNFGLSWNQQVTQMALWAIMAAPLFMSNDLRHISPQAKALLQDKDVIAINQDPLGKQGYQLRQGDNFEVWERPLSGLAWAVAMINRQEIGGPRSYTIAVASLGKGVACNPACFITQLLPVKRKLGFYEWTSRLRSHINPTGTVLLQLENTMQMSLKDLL
miR-21 reporter: qHTS Assay for Modulators of miRNAs and/orActivators of miR-21; HeLa miR-21 FLuc reporter, luciferase, 48 h; Potency, µM (top dose mostly 38.3 µM), inactives show top-dose reporter change, positive = more light; 340,000 tested, under 10 active; AID 2288, 2010; active = well fitted rising curve with a large enough effect; inconclusive = small, poorly fitted or top-dose-only effect; inactive = no such curve, though single readings can be large or run the other way;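 note: % of control where 0% means no effect; miR-21 action dims this reporter so a rising signal means less miR-21 action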
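HeLa miR-21-FLuc reporter line, endogenous miR-21; 2000 cells/well in DMEM/10% FBS; compound titration up to ~40uM final, 48 h, 37 degree Celsius; luciferase detection reagent, 15 min lysis, CCD luminescence.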
Rango complex inh: qHTS Assay for Inhibitors of Rango (Ran-regulated importin-beta cargo) - Importin beta complex formation; Rango CFP/YFP FRET sensor + importin beta, 45 min; AID 540263, 2011; actives 0.031% (n = 340,000); Potency, µM (titrated, usually from 92.2 µM), without a hit: at the highest dose inhibition of complex formation; active = rising FRET ratio curve, often small or poorly fitted; inconclusive = mostly compound fluorescence or quenching in the first reads; inactive = flat curves in all reads;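 note: potency is the fitted concentration of half-maximal effect; 0% = DMSO wells and 100% = buffer wells lacking importin beta; nearly all actives have a fitted effect of over 15% in size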
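Inhibition scored from the CFP 486 nm/YFP 530 nm FRET ratio 45 min after adding 0.125 microM importin beta to 50 nM Rango biosensor preincubated 5 min with compound (room temperature, PBS with DTT, Tween-20, BSA). No-importin wells as positive control.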
Rango release inh: qHTS Assay for Inhibitors of RanGTP induced Rango (Ran-regulated importin-beta cargo) - Importin beta complex dissociation. Snurportin-1 (Homo sapiens) + GTP-binding nuclear protein Ran (Homo sapiens) + Importin …. Biochemical FRET Rango-importin beta, RanGTP-induced dissociation. Potency, µM (highest dose often 46.1 µM), without a hit: at the highest dose activity change, negative = inhibition. actives 0.071% (n = 340,000); active means falling FRET ratio curve, often poorly fitted, with flat reads before Ran was added; inconclusive means other falling curves, or compound fluorescence or quenching; inactive means flat or rising ratio curve;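 note: potency is the fitted concentration of half-maximal effect; % of control where 0% means no effect; nearly all actives have a fitted effect of over 45% in size; -100% = wells without RanGTP and RCC1; the record marks most hits as doubtful in a second field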
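Compounds preincubate 5 min with complex of recombinant Rango and importin beta in PBS with 1 mM DTT. Ran (0.6 uM) loaded with 2 mM GTP plus 0.2 uM RCC1 starts dissociation; FRET is recorded 45 min later.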
Numbers without * were called inactive; u = inconclusive; x = no result given; & = joins results of further samples. The list is partial. The share of hits here may be higher or lower than overall.

GLA inh pH 4.5 | miR-21 reporter | Rango complex inh | Rango release inh | molecule
2 | -2% | 0.3% | -8% | COc1ccccc1N1CCN(C(=O)CSc2nc3ncnc(N)c3[nH]2)CC1
x | 0% | 3.6% | -11% | Cc1ccc2c(c1)N(C(=O)CCC(=O)NCc1cccc(F)c1)CCO2
x | -4% | 0.7% | -1% | C/C(=N\NC(=O)c1nnn(-c2nonc2N)c1CSc1ccc(Cl)cc1)c1cccnc1
x | -1% | 2.5% | 2% | CCCOP(=O)(c1ccc(N(C)C)cc1)C(O)c1ccc(Cl)cc1 (centres undefined)
5 | -48% | 1.4% | -12% | S=C(NCCc1ccccc1)Nc1ccccn1
x | x | 1.7% | -9% | Cc1cc(Cl)ccc1NC(=O)CN(C)C1=NS(=O)(=O)c2ccccc21
-1 | -5% | u | 7% | Cc1nc(Cl)c(C(=O)NCc2ccccc2)c(C)c1Cl
2 | -7% | -1.0% | -7% | O=C(Nc1ccc(Cl)cc1C(=O)N1CCOCC1)c1ccco1
x | 3% | 0.7% | 1% | COc1cccc(OCCNC(=O)c2cc(OC)c(OC)c(OC)c2)c1
x | x | 2.6% | -13% | O=[N+]([O-])c1ccccc1S(=O)(=O)N/C(=N/S(=O)(=O)c1ccccc1)c1ccccc1
x | 7%&6% | -0.3% | 11% | COC(=O)C1=C(C)N(Cc2ccccc2)C(=S)N[C@H]1c1ccccc1
x | x | 0.8% | -2% | CC1CCCN(CCS(=O)(=O)c2ccccc2)C1 (centres undefined)
x | x | u | 2% | COc1ccc(-c2cc(C(=O)OCC(=O)NC3CC3)c3ccccc3n2)cc1
x | 0% | 5.4% | -20% | CCOc1ccc(CCNC(=O)COC(=O)/C=C/c2ccc(C)o2)cc1OCC
3 | 1% | 0.9% | 8% | O=C(O)c1cccc2c1C(=O)N(Cc1ccncc1)C2
3 | -4% | -1.3% | 8% | COC(=O)COc1cc(Br)c(/C=C2/SC(=O)N(CC(=O)N3CCCC3)C2=O)cc1OC
7 | 2% | -1.1% | -5% | COc1ccccc1C(=O)NCc1n[nH]c(=S)n1Cc1ccccc1
5 | -19% | 2.1% | -9% | CCOC(=O)c1sc2nc3n(c(=O)c2c1C)CCC3
x | x | 4.8% | -12% | COc1ccccc1OCC(=O)Nc1nc(-c2ccc(S(=O)(=O)N3CCOCC3)cc2)cs1
x | -1% | -0.5% | 0% | CCOCCCNC(=O)c1ccc(CS(=O)(=O)c2cccc(C(F)(F)F)c2)o1
-8&-2 | 24% | u | 15% | COC(=O)c1ccc(C23CC4(C2)[C@H](CN(Cc2cccnc2)[C@@H]4c2ccccc2)C3c2ccc(C(F)(F)F)cc2)cc1 (some centres undefined)
x | -59% | 0.0% | -10% | COc1ccc(OCc2cc(C(=O)N3C[C@@H](C)O[C@@H](C)C3)no2)c(Cl)c1
-2 | -9% | 3.8% | -10% | CC1C(=O)C(C)(C)C(=O)OC1c1ccccc1 (centres undefined)
6 | 0% | 1.1% | 11% | CCCCN1C(=O)CC(C(=O)OCC)=C1C
x | 5%&4% | 0.8% | 9% | Cc1nc2sccn2c(=O)c1S(=O)(=O)Nc1cccc(Cl)c1C
-8 | -1% | 2.9% | -3% | Cc1cc(C(=O)O)ccc1-n1c(C)cc(/C=C(/C#N)C(=O)Nc2ccccc2)c1C
x | x | -2.2% | 5% | COc1ccc(C(=O)OCC(=O)c2c[nH]c3ccccc23)cc1OC
-1 | -9% | 1.1% | 36% | COC(=O)Nc1ccc(Cn2cc(C(F)(F)F)ccc2=O)cc1
x | 3% | -1.4% | -7% | CCc1ccc(C(C)(O)C(CN2CCOCC2)c2ccccc2)cc1 (centres undefined)
0 | -4% | 2.1% | -6% | O=C1CSC(c2cccnc2)N1CC1CC1 (centres undefined)
0&-3 | -3% | -1.6% | 48% | C[C@@H](C(=O)O)[C@@H]1C[C@@]1(C)[C@@H](NC(=O)OCc1ccccc1)c1ccccc1
x | x | -2.8% | -14% | CCCCNC(=O)c1c(CSc2ccc(Cl)cc2)noc1C(=O)NCCC
x | -2% | 6.3% | -3% | Cn1ncc(Cl)c1C(=O)N1CCC(Cc2ccccc2)CC1
-17 | -33% | -0.9% | 1% | Cc1ccc(/C=C/C(=O)c2ccccc2O)cc1
x | 3% | 1.1% | 4% | COC(=O)N1C(=O)[C@@](Cc2ccccc2)(c2ccccc2)N1C(=O)OC
1 | -3% | 3.9% | 0% | O=C(COc1cc(O)c2c(=O)cc(-c3ccccc3)oc2c1)c1ccc(F)cc1
x | 1% | u | 1% | N#Cc1c(N)c2ccccn2c1C(=O)c1ccc(Br)cc1
-1 | 1% | 3.2% | 20% | CCN(CC)C(=O)CSc1nnc(CNc2ccc(F)cc2)n1Cc1ccco1
4&2 | 0% | 8.2% | 7% | CC(Cc1ccccc1)C(=O)N[C@@H](CO)Cc1ccccc1 (some centres undefined)
-9 | -4% | -1.1% | -2% | O=C1c2cccc3c(Cl)ccc(c23)C(=O)N1O

Arranged by SMILES length (ascending): some entries from above.
GLA inh pH 4.5 | miR-21 reporter | Rango complex inh | Rango release inh | molecule
x | 1% | u | 1% | N#Cc1c(N)c2ccccn2c1C(=O)c1ccc(Br)cc1
4&2 | 0% | 8.2% | 7% | CC(Cc1ccccc1)C(=O)N[C@@H](CO)Cc1ccccc1 (some centres undefined)
x | x | -2.8% | -14% | CCCCNC(=O)c1c(CSc2ccc(Cl)cc2)noc1C(=O)NCCC
-1 | 1% | 3.2% | 20% | CCN(CC)C(=O)CSc1nnc(CNc2ccc(F)cc2)n1Cc1ccco1
x | 3% | 1.1% | 4% | COC(=O)N1C(=O)[C@@](Cc2ccccc2)(c2ccccc2)N1C(=O)OC
1 | -3% | 3.9% | 0% | O=C(COc1cc(O)c2c(=O)cc(-c3ccccc3)oc2c1)c1ccc(F)cc1

Next section:
GLA inh pH 4.5 | miR-21 reporter | Rango complex inh | Rango release inh | molecule
3 | -10% | -5.7% | -10% | N#Cc1ccccc1CSc1nc(N2CCCCC2)nc(N2CCCCC2)n1
7 | -3% | 0.5% | -3% | O=C1NC(c2ccc(-c3ccccc3[N+](=O)[O-])o2)C(C(=O)c2ccc(F)cc2)C(O)(C(F)(F)F)N1 (centres undefined)
x | x | -1.7% | 21% | Cc1cc(C)cc(C(=O)NCC(=O)OCN2C(=O)c3ccccc3C2=O)c1
x | -7% | 2.8% | 5% | CCC(=O)Nc1nnc(SCC(=O)Nc2ccc3c(c2)OCO3)s1
2 | -39% | -9.3% | -22% | O=C(c1ccccc1)c1nc2c(n1O)CCCCC2
7 | 3% | -2.0% | 0% | CCNC(=O)COC(=O)/C=C/c1ccccc1[N+](=O)[O-]
-28 | 0% | u | u | CCCN(CCC)C1=N/C(=C\c2ccco2)C(=O)N1c1ccccc1
5 | u | 6.8% | -10% | Cc1c(CN2CCC(CO)(CCOc3ccccc3)CC2)[nH]c2c(Cl)cccc12
x | x | 0.7% | -4% | COC(=O)[C@]1(C)N[C@H](CN(C)C(=O)NC(C)C)[C@@H]2C(=O)N(C)C(=O)[C@@H]21
0 | 9% | -2.3% | -18% | S=c1[nH]nc(-c2ccccn2)n1/N=C/c1ccc(-c2ccccc2Br)o1
-3 | -4% | -0.3% | -8% | Cn1c(=O)cc(SCC(=O)NCc2ccco2)c2ccccc21
-5 | -2% | -0.7% | -5% | Cc1ccc(/C=C/S(=O)(=O)Nc2ccc(C)cc2)cc1
2 | -40% | 3.3% | -18% | Cc1cccc(-c2nc(C#N)c(NCC3CCCO3)o2)c1 (centres undefined)
x | x | u | -10% | CCN(c1ccccc1)S(=O)(=O)c1ccc(OC)c(NC(=O)Cc2ccc(OC)c(OC)c2)c1
-7 | 29% | -3.2% | 1% | Cc1ccc(C2=NC(C(F)(F)F)(C(F)(F)F)c3c(n(-c4ccc(F)cc4)c(=O)[nH]c3=O)N2)cc1
x | x | 1.0% | 11% | CC[C@]12c3[nH]c4cc(CCC(=O)N(C)C)ccc4c3CCN1C(=O)[C@@H](CC(=O)NCc1ccco1)C[C@@H]2C(=O)N1CCN(C(=O)C2CC2)CC1
x | x | u | 0% | CCc1cccc(C)c1NC(=O)c1cc(-c2ccncc2)nc2ccccc12
-21 | 0% | -0.3% | -15% | O=C(CN1C(=O)/C(=C/c2ccccc2)SC1=S)Nc1ncc(Cc2ccccc2)s1
11 | 3% | -0.8% | -8% | Cc1c(NC(=O)C(C)N2C(=O)C3CCCCC3C2=O)c(=O)n(-c2ccccc2)n1C (centres undefined)
-3 | -13% | -1.4% | 19% | CC(C)c1nc2sc3c(=S)nc[nH]c3c2c2c1CCC2
x | 6% | 0.3% | -10% | O=C(Nc1c2c(nn1-c1ccc(Cl)cc1)CS(=O)(=O)C2)c1ccccc1
x | x | 4.1% | -6% | CC(Oc1cccc(Br)c1)C(=O)Nc1cccc(S(=O)(=O)N2CCOCC2)c1 (centres undefined)
4 | 2%&7% | 0.3% | -5% | CCN(C(=O)Cc1c(C(=O)O)[nH]c2ccccc12)c1ccc(OC)cc1
x | x | -2.7% | 1% | COc1cc(O)c2c(=O)c3c(O)ccc(O)c3oc2c1
x | x | 3.8% | 12% | N#Cc1ccc(N)cc1OCCCN1CCCCC1
x | x | 2.1% | 14% | CCCn1ccc2c(OCC(=O)Nc3ccc(NC(C)=O)cc3)cccc2c1=O
0 | 1% | -3.4% | 1% | CCC(=O)N1CCc2cc(Br)cc(S(=O)(=O)NCc3ccco3)c21
0 | -6% | -1.5% | -1% | O=Nc1c(O)n(Cc2ccc(Cl)c(Cl)c2)c2ccccc12
x | -2% | 0.9% | -20% | COc1cc(CN2CCN(S(=O)(=O)c3ccccc3)CC2)cc(OC)c1OC
x | x | u | -19% | CCCCCCSc1cc(-c2nc3ccc(Cl)cn3c2NCCCC)ccc1OC
-13 | -8% | 2.5% | -15% | C/C(=N\OCC(=O)Nc1ccc(Br)cc1)c1cccs1
7 | -1% | 3.9% | -2% | COc1ccccc1CNS(=O)(=O)c1c(C)noc1C
4 | 7% | 1.5% | 7% | Cc1ccccc1NN=Nc1nc2c([nH]1)c(=O)n(C)c(=O)n2C
x | x | -0.5% | 9% | COC(=O)[C@H]1C[C@H](O)CN1S(=O)(=O)c1ccc(Br)cc1F
-12 | -40% | 2.2% | 2% | COc1ccc(Nc2nnc(SCc3cc(=O)n4ccsc4n3)s2)cc1
3 | 0%&0% | -2.8% | 4% | COC(=O)c1c(NC(=O)Nc2ccc(Cl)cc2)sc(C)c1C
2 | -7% | 0.2% | 2% | O=C(Nc1cccc(OC(=O)c2cccnc2)c1)c1cccnc1
4 | -9% | 0.4% | 1% | CCn1c(SCc2nc3ccccc3c(=O)[nH]2)nc2ccccc21
-1 | -4% | -0.7% | 3% | COc1ccc(-c2nnc(SCC(=O)c3ccco3)n2-c2ccccc2)cc1
-17 | 1% | 0.3% | 31% | CC(C)Cn1c(N)c(C(=O)CSc2ncnc3sc4c(c23)CCCC4)c(=O)n(C)c1=O
-4 | 17% | 1.5% | -13% | O=C(NNC(=O)c1ccccn1)c1cccc([N+](=O)[O-])c1
-1 | -1% | 7.0% | -10% | COc1ccc(CNC(=O)C(Cc2ccccc2)n2cccc2)cc1 (centres undefined)
-9 | -11% | 4.6% | 4% | CC(=O)CC(=O)NC1C2CC3CC(C2)CC1C3 (centres undefined)
-2 | 5% | 3.0% | -13% | CCC(=O)Oc1c(S(=O)(=O)c2ccc(C)cc2)c(C)nn1C(C)(C)C
5 | 0% | -0.3% | 18% | O=C(NC1CCCCCCC1)C1CCN(S(=O)(=O)N2CCC3(CC2)OCCO3)CC1
x | 5% | -0.7% | -2% | O=C(NCC(=O)N1CCN(C(c2ccccc2)c2ccccc2)CC1)c1ccccc1F
x | -68% | 0.3% | -23% | CCCc1cc(C(=O)Nc2cccc(Cl)c2C)no1
x | -9%&0% | 0.4% | 1% | CCCCNC(=O)CCn1c(=O)c2cccn2c2ccc(F)cc21
-4 | -19% | 4.4% | -18% | O=C(Nc1nc2ccc(S(=O)(=O)N3CCOCC3)cc2s1)c1cccs1
-7 | 8% | -1.8% | -2% | COc1cc(O)c(C(CC(=O)N2CCCC2)c2ccc(N(C)C)cc2)c(OC)c1 (centres undefined)
